Screening results (PubChem BioAssay)
Sfp inh: qHTS Assay for Inhibitors of Bacillus subtilis Sfp phosphopantetheinyl transferase (PPTase). 4'-phosphopantetheinyl transferase ffp (Bacillus subtilis), Q9F4F7. Biochemical Sfp PPTase activity, qHTS. Potency, µM, for inactives: max response, negative = inhibition, actives largely listed as inhibitors. hit rate 3.5% among 310,000. AID 1490, 2009; active = well fitted inhibition curve with a large enough effect; inconclusive = small, poorly fitted or top-dose-only effect, or another doubt; inactive = no such curve, though single readings can be large or run the other way;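 note: the enzyme is Sfp with the accession as filed and its product quenches rhodamine fluorescence; potency is the fitted concentration of half-maximal effect; 0% = enzyme reaction without inhibitor and -100% = no enzyme wells; top concentration of the series not given in the record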
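Step 1, compound plus 15 nM Sfp-PPTase, 15 min, room temperature. Step 2, add rhodamine-CoA (5 uM) and BHQ-2-YbbR (12.5 uM). Step 3, read 525/598 nm fluorescence at 0 and 30 min.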
ClpP mod: qHTS Assay for Activators of ClpP | ATP-dependent Clp protease proteolytic subunit (Bacillus subtilis (strain 168)), P80244 | purified B. subtilis ClpP, FRET peptide cleavage, 20 min | Potency, µM (titrated, usually from 57.5 µM), for the others: at the highest dose activity change, negative = active | hit rate 1.9% among 340,000; active = well fitted falling curve with a large enough effect; inconclusive = small, poorly fitted or top-dose-only effect; inactive = no such curve, though single readings can be large or run the other way; note: potency is the fitted concentration of half-maximal effect; the source files actives as falling curves though it sought activators and does not explain the sign; nearly all actives have a fitted effect of over 65% in size; many hits overshoot -100%
Target sequence (P80244 whole entry, looked up): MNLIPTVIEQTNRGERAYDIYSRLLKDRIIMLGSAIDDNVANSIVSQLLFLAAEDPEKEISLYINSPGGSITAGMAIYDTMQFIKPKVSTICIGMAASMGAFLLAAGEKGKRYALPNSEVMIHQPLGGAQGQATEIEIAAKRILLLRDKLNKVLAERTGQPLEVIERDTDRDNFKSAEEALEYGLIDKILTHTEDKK
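Buffer: 100 mM Tris/HCl pH8, 100 mM KCl, 0.05% low protease BSA, 2.5% glycerol, 0.01% Tween-20. ClpP 10 microg/mL final; 20 min RT; delta FRET normalized to ADEP and DMSO controls.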
gsp antag: qHTS for Antagonists of gsp, the Etiologic Mutation Responsible for Fibrous Dysplasia/McCune-Albright Syndrome: qHTS; Potency, µM (doses to about 76.9 µM), without a hit: top-dose activity change, negative = inhibition, usual class: inhibitors; AID 624288, 2012; hit rate 0.4% among 340,000; gsp-mutant cells, cAMP HTRF, 30 min; control for the full effect not named in the record; active = falling curve of any shape with a large fitted effect; inconclusive = falling curve, mostly with a smaller effect; inactive = flat or rising curve; cell line not stated here;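 note: intracellular cAMP measured with PDE inhibitor Ro 20-1724 present during compound exposure; potency is the fitted concentration of half-maximal effect; % is set by controls: 0 for no effect and ±100 for the full control effect; nearly all actives have a fitted effect of over 65% in size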
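HTRF cAMP measurement after 30 min RT detection following 30 min, 37C compound treatment alongside […] (added as 300 uM solution) in G418-selected cells seeded at 2000/well and grown 16–24 h.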
Menin MLL FP FL: qHTS Assay for Inhibitors Targeting the Menin-MLL Interaction in MLL Related Leukemias: Competition With Fluorescein Labeled MLL-derived Peptide; Fluorescence polarization, fluorescein-MLL peptide displacement from menin; FP activity change, % at 61.4 µM; 290,000 tested, under 10 active; AID 1766, 2009; inconclusive = falling polarisation curve, or a change in total fluorescence; inactive = total fluorescence flat and polarisation flat or rising; no compound was filed as active; the % refers to the polarisation; negative = inhibition;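 note: % of control where 0% means no effect; inhibitors lower the polarisation; unlabelled MLL peptide was the positive control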
gsp ag: qHTS for Agonist of gsp, the Etiologic Mutation Responsible for Fibrous Dysplasia/McCune-Albright Syndrome: qHTS; gsp mutant cells, cAMP HTRF, 30 min; control for the full effect not named in the record; Potency, µM (highest dose often 76.9 µM), for inactives: at the highest dose activation (cAMP increase), usual class: activators; hit rate 0.13% among 340,000; AID 624287, 2012; active = well fitted activation curve with a large enough effect; inconclusive = small, poorly fitted or top-dose-only effect, or another doubt; inactive = no such curve, though single readings can be large or run the other way; cell line not stated here;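 note: phosphodiesterase inhibitor Ro 20-1724 added with compounds to block cAMP breakdown; potency is the fitted concentration of half-maximal effect; nearly all actives have a fitted effect of over 60% in size; about a fifth of the inactives were tested at one dose only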
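Cells in DMEM/10% FBS with G418 were pretreated with compounds in DMSO plus […] (300 uM stock) for 30 min at 37C. cAMP was measured by HTRF (cAMP-d2 plus anti-cAMP antibody-K) after 30 min at room temperature.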
TRPV1 potentiator: HTS Assay for Compounds that Act as Potentiators of the Vanilloid Receptor 1; Transient receptor potential cation channel subfamily V member 1 (Homo sapiens), Q8NER1; TRPV1-expressing cells, Fluo-8 calcium influx, capsaicin EC20 potentiation; host cell line not named in the record; control for the full effect not named in the record; potentiation, % at 8.33 µM; hit rate 0.02% among 320,000; AID 540277, 2011; active means potentiation above 80%; inconclusive means 30% to 80%; inactive means below 30%; note: 0% is about no effect
Target sequence (Q8NER1 whole entry, looked up): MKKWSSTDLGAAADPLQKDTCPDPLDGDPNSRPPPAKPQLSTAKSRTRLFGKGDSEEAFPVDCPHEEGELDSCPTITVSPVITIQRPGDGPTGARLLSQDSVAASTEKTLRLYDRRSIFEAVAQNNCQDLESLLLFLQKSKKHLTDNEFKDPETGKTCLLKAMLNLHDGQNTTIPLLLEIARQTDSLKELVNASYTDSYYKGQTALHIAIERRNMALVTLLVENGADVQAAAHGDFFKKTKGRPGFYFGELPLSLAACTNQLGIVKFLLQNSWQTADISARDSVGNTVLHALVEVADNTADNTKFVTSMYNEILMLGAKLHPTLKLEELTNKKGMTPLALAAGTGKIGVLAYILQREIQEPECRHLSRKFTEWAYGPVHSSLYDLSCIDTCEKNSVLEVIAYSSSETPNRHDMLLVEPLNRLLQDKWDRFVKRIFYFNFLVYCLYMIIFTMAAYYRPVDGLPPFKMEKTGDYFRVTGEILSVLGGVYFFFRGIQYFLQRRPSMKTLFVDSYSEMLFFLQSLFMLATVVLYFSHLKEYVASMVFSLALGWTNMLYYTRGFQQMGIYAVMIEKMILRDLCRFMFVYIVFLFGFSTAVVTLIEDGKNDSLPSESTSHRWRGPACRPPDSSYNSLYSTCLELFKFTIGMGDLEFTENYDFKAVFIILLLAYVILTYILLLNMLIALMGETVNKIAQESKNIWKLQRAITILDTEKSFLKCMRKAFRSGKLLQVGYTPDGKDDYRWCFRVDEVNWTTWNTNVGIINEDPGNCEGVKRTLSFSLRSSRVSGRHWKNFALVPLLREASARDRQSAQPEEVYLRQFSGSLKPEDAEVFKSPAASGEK
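Cells expressing TRPV1 were dye-loaded with Fluo-8 and read kinetically: 10 s baseline, 3 min after compound (agonist portion), then 2 min after EC20 capsaicin (allosteric enhancer portion). Calcium-bound dye fluorescence at 480/520 nm.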
TRPML1 blocker: qHTS for Inhibitors of the Human Mucolipin Transient Receptor Potential 1 (TRPML1); Mucolipin-1 (Homo sapiens), Q9GZU1; TRPML1-inducible cells, Ca2+ dye fluorescence, FDSS; stronger effect = lower value; inhibition of EC80 agonist-evoked calcium signal; activity change, negative = inhibition, % (concentration not given with the values); hit rate 0.02% among 390,000; AID 624415, 2012; in the data active means activity change below about -50%; inconclusive means about -30% to -50%; inactive means above about -30%;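 note: stimulus is agonist 54-4 at its EC80 concentration; % is set by controls: 0 for no effect and ±100 for the full control effect; compound concentration not given in the record; the text of the record puts the active cut at -80%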
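Calcium fluorescence in TRPML1-DL cells induced overnight with Tet: a 110 s read after compound pin addition, then a 110 s antagonist read after challenge with 54-4 at 4 uM final (EC80).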
Starred values were filed as active, the others as inactive; i = inactive; u = inconclusive; x = no result given; [ ] = remark or other dose. Outcome played no part in choosing rows; any-hit rate near 4.9%.

SMILES	Sfp inh	ClpP mod	gsp antag	Menin MLL FP FL	gsp ag	TRPV1 potentiator	TRPML1 blocker
O=C(c1ccc2nc(N3CCCCC3)sc2c1)N1CCN(Cc2ccc3c(c2)OCO3)CC1	15%	-14%	2%	3.1	3%	-10	-9
Cc1oc(-c2cc(F)ccc2F)nc1CN1CCN(c2cnccn2)CC1	-7%	x	-4%	-3.5	-24%	-7	-7
Cc1cccc(C(C(=O)NC2CCCC2)N(C(=O)c2csnn2)C2CCCC2)c1 (centres undefined)	7%	x	-13%	-2.4	6%	27	41
CCC(C)NS(=O)(=O)c1ccc(OCC(=O)NCc2ccc3c(c2)OCO3)cc1 (centres undefined)	17%	-2.7%	0%	4.4	10%	-5	-11
CC1CC(C)CN(S(=O)(=O)N2CCCC(C(=O)NCCc3ccc(Cl)cc3)C2)C1 (centres undefined)	18%	-0.3%	-6%	0.2	-23%	4	-5
O=C(NN1C(=O)/C(=C/C=C/c2ccccc2)SC1=S)c1ccncc1	-29%	x	-16%	u	-15%	u	6
COc1ccc(C(=O)NCc2cn3cccc(C)c3n2)cc1OC	5%	-4.1%	5%	0.4	-36%[inhibitor]	x	5
Cn1cc(CN2CCN(CCO)CC2)c(-c2ccc(Oc3ccccc3)cc2)n1	-10%	1.6%	7%	-4.8	-2%[15.4 µM]	0	11
O=C(N/N=C/c1ccccn1)c1ccc(Cl)c(Cl)c1	u	x	x	-14	x	-13	x
CCCOc1ccc(NC(=O)CC2C(=O)N(CC)C(=S)N2CCNC(C)=O)cc1 (centres undefined)	15%	-22%	10%	0.9	8%[15.4 µM]	18	10
O=C(c1ccccc1)c1cc[n+]([O-])cc1	-12%	0.1%	11%	-0.4	-56%[inhibitor]	7	-9
O=C(O)CC(Cn1cnnn1)c1ccccc1 (centres undefined)	-5%	1.3%	10%	1.0	-31%[inhibitor]	x	37

Reprinted from the part before: 6 entries, then new ones.
SMILES	Sfp inh	ClpP mod	gsp antag	Menin MLL FP FL	gsp ag	TRPV1 potentiator	TRPML1 blocker
COc1ccc(C(=O)NCc2cn3cccc(C)c3n2)cc1OC	5%	-4.1%	5%	0.4	-36%[inhibitor]	x	5
Cn1cc(CN2CCN(CCO)CC2)c(-c2ccc(Oc3ccccc3)cc2)n1	-10%	1.6%	7%	-4.8	-2%[15.4 µM]	0	11
O=C(N/N=C/c1ccccn1)c1ccc(Cl)c(Cl)c1	u	x	x	-14	x	-13	x
CCCOc1ccc(NC(=O)CC2C(=O)N(CC)C(=S)N2CCNC(C)=O)cc1 (centres undefined)	15%	-22%	10%	0.9	8%[15.4 µM]	18	10
O=C(c1ccccc1)c1cc[n+]([O-])cc1	-12%	0.1%	11%	-0.4	-56%[inhibitor]	7	-9
O=C(O)CC(Cn1cnnn1)c1ccccc1 (centres undefined)	-5%	1.3%	10%	1.0	-31%[inhibitor]	x	37
CCCCn1c(C)cc2c(c1=O)[C@H]1O[C@](CCCCN3C(=O)c4ccccc4C3=O)(Cc3ccccc31)O2	6%	x	x	0.8[11.7 µM]	x	i	x
C=CCN(C(=O)Cn1c(C(=O)OC)cc2oc(C)cc21)c1ccccc1	u	-3.8%	1%	4.1	-35%[inhibitor]	-9	1
CC(=O)c1nn(-c2ccccc2)cc1C(=O)c1ccc(C)cc1	x	x	4%	x	-14%[15.4 µM]	x	4
Cc1cc([N+](=O)[O-])ccc1NC(=O)C[n+]1ccc(N(C)C)cc1	23%	x	-2%	1.0	8%[15.4 µM]	-18	2
COC(=O)c1sc2nc(N3CCCCC3)c3c(c2c1N)CCCC3	-13%	10µM*	-21%	3.0	-19%	-15	-3
Cc1ccc(-n2c(SCC(=O)NC3CCCCC3)nc3c(c2=O)SCC3)cc1	14%	2.7%	1%	1.7	-26%	-38	10
COc1ccc(S(=O)(=O)NCCSCc2cccs2)cc1	22%	-4.3%	32µM*	-1.2	-4%	8	-2
O=C(CNc1cccc2ccccc12)N/N=C/c1ccc(C(=O)O)cc1	2%	-15%	7%	1.4	-35%[inhibitor]	2	5
COc1ccc(C2=C(C=Nc3c(C)n(C)n(-c4ccccc4)c3=O)C(c3ccccc3C)c3ccccc3O2)cc1OC (centres undefined)	u	0.5%	-25%	1.1	-11%	12	2
Cc1ccc(-n2ncc(C(=O)N3CCN(C(=O)c4ccco4)CC3)c2C2CCN(C(=O)OC(C)(C)C)CC2)cc1C	u	-1.0%	-8%	x	20%	-4	-13
Cc1ccc(-c2nc(CN(C)C(C3CC3)C3CC3)c(C)o2)cc1	1%	x	3%	-1.1	40%[15.4 µM]	-3	-2
Cn1nnnc1SCC(=O)N1CCN(C(=O)c2ccco2)CC1	25%	0.1%	1%	-3.3	-1%	0	4
COc1ccccc1-c1nnc(SCC(=O)Nc2oc(C)c3c(C)n[nH]c(=O)c23)n1C	x	1.3%	4%	x	10%[15.4 µM]	-13	-22
COC(=O)c1sc2ccccc2c1-n1cccc1C(=O)C(=O)Nc1ccc(Cl)cc1	22%	14µM*	0%	8.8	-18%	-8	-18
C=CCNC(=S)N/N=C(\C)c1ccc(-n2ccnc2)cc1	4%	-4.3%	0%	-2.2	8%	6	-14
COc1cc(OC)cc(C(=O)N2CCC(C(=O)N3CCOCC3)CC2)c1	4%	x	15%	5.2	-1%[15.4 µM]	-2	13
O=C(Nc1cccc(-c2ccc(N3CCOCC3)nn2)c1)c1cccc(Cl)c1	x	-4.6%	x	x	-5%	x	0
COc1ccc2nc(Nc3ccccc3OC)sc2c1	-4%	x	-8%	4.6	16%[15.4 µM]	1	-19
COC(=O)CCC(C)C1CCC2C3C(OC(C)=O)CC4CC(O)CCC4(C)C3CC(O)C12C (centres undefined)	x	1.0%	x	x	-32%[inhibitor]	x	10
OC1CCCN(Cc2ccc3ccc4cccc5ccc2c3c45)C1 (centres undefined)	-6%	14%	6%	1.1	-31%[inhibitor]	-38	-6
O=C(c1cc(-c2cccc(Cl)c2)on1)N1CCOCC1	5%	x	7%	0.2	-29%[15.4 µM]	-10	7
Cc1ccn2c(CN(C)CCn3nc(C)cc3C)c(C(=O)N3CCCCCC3)nc2c1	-27%	-16%	3%	1.1	1%	-4	13
Cc1cccc(/C(N)=N/OC(=O)COc2ccc(Cl)c(C)c2)c1	3%	-7.9%	10%	0.0	-2%	3	-2
Nc1nc2ccccc2[nH]1	4%	x	5%	-2.0	-4%	12	14

Pulled one by one from the entries so far:
SMILES	Sfp inh	ClpP mod	gsp antag	Menin MLL FP FL	gsp ag	TRPV1 potentiator	TRPML1 blocker
COC(=O)c1sc2ccccc2c1-n1cccc1C(=O)C(=O)Nc1ccc(Cl)cc1	22%	14µM*	0%	8.8	-18%	-8	-18
O=C(Nc1cccc(-c2ccc(N3CCOCC3)nn2)c1)c1cccc(Cl)c1	x	-4.6%	x	x	-5%	x	0
C=CCNC(=S)N/N=C(\C)c1ccc(-n2ccnc2)cc1	4%	-4.3%	0%	-2.2	8%	6	-14

Going on with the list.
SMILES	Sfp inh	ClpP mod	gsp antag	Menin MLL FP FL	gsp ag	TRPV1 potentiator	TRPML1 blocker
O=C(NNc1cccc(Cl)n1)c1ccccc1CC[N+](=O)[O-]	21%	x	14%	2.4	29%[15.4 µM]	-5	13
CC(=O)c1ccc(OCC(=O)Nc2ccc(N3CCCCC3)cc2)cc1	x	-0.3%	4%	x	4%	-25	-8
O=C(c1ccccc1)c1ccc(OCCCN2CCCC2)cc1	-37%	-1.7%	8%	1.5	3%[15.4 µM]	16	-9
C=CCNC(=O)NC(=O)COC(=O)c1ccccc1Sc1ccc(C(F)(F)F)cc1[N+](=O)[O-]	1%	x	0%	0.5	11%[15.4 µM]	4	26
COC(=O)C1CN(C(=O)COc2ccc(Cl)c(C)c2)c2ccccc2O1 (centres undefined)	2%	x	-22%	0.5	-4%	-1	-18
OCC[C@@H]1C[C@@H](O)[C@H](O)[C@@]2(CCCCO2)O1	x	-0.4%	5%	x	-9%	x	3
CC(C)(O)C#Cc1ccc(C(=O)N2CCN(c3ccc(F)cc3)CC2)cc1	8%	x	-9%	-0.9	-9%[15.4 µM]	-1	5
CCCCOc1cccc(C(=O)Nc2ccc(NC(=O)c3cccs3)cc2)c1	23%	x	-1%	1.1	7%	-1	-7
CCc1nnc(NC(=O)CSc2nnc(Cc3ccc(OC)cc3)o2)s1	-6%	1.2%	-16%	1.3	-49%[inhibitor]	7	-4
Cn1c(SCC(=O)N2CCOCC2)nnc1-c1cccc(NC(=O)c2ccccc2)c1	-18%	0.1%	16%	-0.2	22%	-10	-8
CC1(C)CC(NC(=O)N2c3ccccc3Sc3ccccc32)CC(C)(C)N1	-9%	x	15%	2.3	-5%[15.4 µM]	x	-1
CCNC(=S)N(Cc1ccco1)Cc1cc2cc3c(cc2[nH]c1=O)OCCO3	-6%	28µM*	-5%	2.2	-5%	29	-10
O=C(Nc1nccs1)c1ccc2c(=O)n3c(nc2c1)CCCCC3	17%	-2.4%	-3%	4.1	-11%	-4	-3
C[C@]12CC[C@@H]3c4ccc(O)cc4C(=O)C[C@H]3[C@@H]1CC[C@@H]2O	17%	-0.5%	-5%	1.8	x	-12	19
CNC(=O)c1[nH]cnc1C(=O)Nc1cccc(C)c1	x	44%	4%	x	-9%	-12	-1
O=C(Nc1ccc(F)cc1)C(NC1CCCCC1)c1ccccc1 (centres undefined)	-3%	x	2%	0.3	33%[15.4 µM]	-10	23
CCn1c(SCC(=O)N/N=C/c2ccc(C)s2)nc2ccccc21	-15%	-2.3%	0%	6.6	0%	17	2
